Compound activity deposited in PubChem by National Center for Advancing Translational Sciences (NCATS).
D2 potentiator = potentiates the human D2 dopamine receptor allosterically; P14416; DiscoveRx D2 beta-arrestin cells, luminescence, 90 min; 100% = 57 uM dopamine signal; potentiation, % (concentration not given with the values); actives 0.23% (n = 360,000); AID 624464; active = potentiation of 50% or more; inconclusive = 30% to 50%; inactive = 30% or less;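 further: compound concentration not given in the record; tested on top of an EC20 dose of dopamine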
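PathHunter D2 cells, attached overnight at 37 deg C, received compound in DMSO plus dopamine at EC20 (50 nM final) for 90 min at 37 deg C. Beta-arrestin recruitment was read as luminescence after 1 h with detection reagent at ambient temperature.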
Six1-Eya2 inh = inhibitors of human Six1/Eya2 interaction. Q15475+O00167. AlphaScreen GST-Six1/His-Eya2 binding, biochemical; active compounds read low; control for the full effect not named in the record. activity change, % (concentration not given with the values). actives 0.56% (n = 360,000); in the data active = activity change below about -65%; inconclusive = about -30% to -65%; inactive = above about -30%; further: on the % scale 0 is the no-effect control and ±100 the full control effect
Target sequence (O00167 whole entry, looked up): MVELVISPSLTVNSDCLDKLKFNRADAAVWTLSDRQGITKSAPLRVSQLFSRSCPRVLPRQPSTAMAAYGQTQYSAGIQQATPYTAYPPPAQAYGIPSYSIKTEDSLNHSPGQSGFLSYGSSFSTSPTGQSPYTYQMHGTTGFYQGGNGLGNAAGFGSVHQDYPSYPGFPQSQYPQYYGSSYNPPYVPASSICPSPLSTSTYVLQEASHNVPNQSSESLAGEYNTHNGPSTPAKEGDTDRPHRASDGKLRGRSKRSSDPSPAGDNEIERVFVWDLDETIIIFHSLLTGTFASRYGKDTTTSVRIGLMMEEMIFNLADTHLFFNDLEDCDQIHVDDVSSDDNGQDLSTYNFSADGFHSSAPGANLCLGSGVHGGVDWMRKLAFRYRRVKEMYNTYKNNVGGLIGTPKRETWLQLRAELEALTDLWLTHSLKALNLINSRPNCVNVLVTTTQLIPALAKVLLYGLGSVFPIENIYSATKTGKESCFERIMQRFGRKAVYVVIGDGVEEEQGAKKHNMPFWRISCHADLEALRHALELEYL
Target sequence (Q15475 whole entry, looked up): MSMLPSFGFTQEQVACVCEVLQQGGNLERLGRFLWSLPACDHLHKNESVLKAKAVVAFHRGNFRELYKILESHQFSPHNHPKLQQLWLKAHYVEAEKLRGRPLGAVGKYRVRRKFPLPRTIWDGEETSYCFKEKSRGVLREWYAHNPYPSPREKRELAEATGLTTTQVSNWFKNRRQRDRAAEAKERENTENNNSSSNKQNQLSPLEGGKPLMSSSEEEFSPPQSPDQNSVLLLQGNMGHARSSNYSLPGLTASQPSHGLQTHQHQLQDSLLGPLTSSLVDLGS
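GST-Six1 + His-Eya2 (5X stock: 250/500 nM); Tris pH 8.0, 300 mM NaCl, 0.05% BSA, 0.02% Tween 20; GSH donor/Ni acceptor beads; 1 h 37 °C dark; AlphaScreen readout.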
PINK1 expr mod = modulators of PINK1 expression | PINK1 immunofluorescence, high-content cytometry, 24 h | Potency, µM (titrated, usually from 76.6 µM), without a hit: at the top dose activation (PINK1 increase), usual class: activators | actives 0.2% (n = 410,000); active = well fitted activation curve with a large enough effect; inconclusive = small, poorly fitted or top-dose-only effect; inactive = flat fitted curve, though single readings scatter; cell line not stated here;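 further: potency means the concentration at half of the fitted maximal effect; % of control where 0% means no effect; nearly all actives have a fitted effect of over 65% in size; a mitochondrial uncoupler was the plate control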
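Cells are seeded, rested 12 hours, then given compound at five concentrations or DMSO for 24 hours. After fixation, blocking and antibody staining, PINK1 amount and mitochondrial localization are scored; CCCP serves as control.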
D2 agonist = activates the human D2 dopamine receptor. activation, % (no concentration beside the values). actives 0.084% (n = 360,000). AID 624465. P14416. DiscoveRx PathHunter D2 beta-arrestin, luminescence, 90 min; 100% = 57 uM dopamine signal; in the data active = activation above about 40%; inconclusive = about 15% to 40%; inactive = below about 15%; further: compound concentration not given in the record; the text of the record calls up to 30% inactive
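Agonist mode: compounds alone added to overnight-plated D2 PathHunter cells for 90 min at 37 C, with 57 uM final dopamine (EC100) defining full response. Beta-arrestin recruitment detected by chemiluminescent reagent, read after 1 h at ambient temperature.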
TRPML1 agonist = agonists of human TRPML1 channel. Q9GZU1. AID 624414. TRPML1-expressing cells, Ca2+ dye fluorescence, FDSS; host cell line not named in the record; reference of the full effect not given here. activation, % (no concentration beside the values). actives 0.12% (n = 410,000); in the data active = activation above about 50%; inconclusive = about 30% to 50%; inactive = below about 30%; further: 0% is about no effect; the text of the record puts the active cut at 80%
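TRPML1-DL cells, Tet-induced overnight (~16 h, 37 degrees C), loaded 45-90 min at room temperature with Ca8 no-wash calcium dye plus quencher. FDSS fluorescence: 10 s baseline, compound pin-transfer, 110 s agonist read, then EC80 54-4 (4uM final) and 110 s antagonist read.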
TRPML1 blocker = inhibitors of human TRPML1 channel | Q9GZU1 | TRPML1-inducible cells, Ca2+ dye fluorescence, FDSS; active compounds read low; inhibition of EC80 agonist-evoked calcium signal | activity change, negative = inhibition, % (concentration not given with the values) | actives 0.02% (n = 390,000) | AID 624415; in the data active means activity change below about -50%; inconclusive means about -30% to -50%; inactive means above about -30%;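 further: stimulus is agonist 54-4 at its EC80 concentration; on the % scale 0 is the no-effect control and ±100 the full control effect; the text of the record puts the active cut at -80%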
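Tet-induced TRPML1-DL cells loaded with Ca8 no-wash calcium dye were read kinetically on FDSS. Compound addition was followed by EC80 agonist 54-4 (4 uM final); inhibition was read over 110 s.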
* hit, by the source's call; ? = inconclusive; nt = not tested or not shown; & = joins results of further samples; [ ] = remark or other dose.

SMILES	D2 potentiator	Six1-Eya2 inh	PINK1 expr mod	D2 agonist	TRPML1 agonist	TRPML1 blocker
COc1ccc(-c2nc(CS(=O)CC(=O)NCc3cccnc3)c(C)o2)cc1 (stereo not given)	-2.0	0.7	-1.6%	-4.8	-0.5	-6.2
COc1ccc(CN(C)C(=O)c2ccc(OCC(=O)Nc3cccc(C(F)(F)F)c3)c(OC)c2)c(OC)c1	14.8	-3.6	0.7%	5.9	2.9	25.7
CCn1c(=NC(=O)c2ccc(S(=O)(=O)N(C)C)cc2)sc2cccc(OC)c21	-2.1	-6.4	1.2%	3.8	0.5	-13.2
O=[N+]([O-])c1ccc(Sc2n[nH]c(-c3ccc(Cl)cc3Cl)n2)nc1	8.7	?	0.9%	-2.2	-0.8	2.2
N=C(N)CCCOc1ccccc1-c1ccccc1	-20.9	5.6	0.1%	-3.2	-0.2	-7.7
O=C(O)c1cc(N2CCCCC2)ccn1	-0.8	?	-5.8%	-2.7	-0.6	22.3
O=C1C[C@H]2[C@H](CO)[C@@H](OC(=O)c3ccc(-c4ccccc4)cc3)C[C@H]2O1	-6.1	3.3	6.4%	-4.4	-0.2	-0.1
CC1CC(C)CN(C(=O)Cn2c(SCC(=O)N3CCc4ccccc4C3)nc3ccccc32)C1 (stereo not given)	-19.9	-6.1	0.4%	-3.6	-0.4	75.0
Cc1ccc(NC(=O)c2ccc(N/N=C/c3cccc(O)c3)c([N+](=O)[O-])c2)cc1	-11.8	-4.7	-1.6%	-1.6	-0.3	-1.2
COc1ccc(CCC(C)Nc2cccc(C)c2)cc1 (stereo not given)	-6.6	-4.3	2.2%[38.3 µM]	0.8	2.5	-12.0
CN1C(=O)/C(=C/c2ccc(O)c([N+](=O)[O-])c2)NC1=S	-11.7	-6.2	-0.1%	-11.1	0.0	-10.8
O=C(O)CN=C(Nc1cc(Cl)cc(Cl)c1)NC(c1ccccc1)c1ccccc1	nt	-1.3	8.7%	nt	-0.2	nt
COc1ccc(-c2cn3c(n2)sc2cc(C(=O)N4CCCCC4)ccc23)cc1	nt	nt	0.9%	nt	1.3	18.7
O=C(NC1CCC(O)CC1)c1ccc(NS(=O)(=O)c2cccc([N+](=O)[O-])c2)cc1 (stereo not given)	-0.6	0.0	1.0%	-1.9	-0.5	-4.9
N#C/C(=C\c1ccco1)C(=O)NCC1CCCO1 (stereo not given)	-0.5	-10.9	0.1%	1.4	-0.8	-11.2
COCCn1c(SCC(=O)NNC(=O)Cc2ccccc2)nc2ccccc2c1=O	-5.0	-4.1	-0.6%	3.4	0.2	6.3
O=C(Cc1ccccc1[N+](=O)[O-])N1CCN(c2ccccc2F)CC1	-9.4	1.0	-0.5%	-1.2	0.0	10.5
O=C(CC1C(=O)NCCN1Cc1ccccc1C(F)(F)F)NCCc1ccccn1 (stereo not given)	-5.9	3.7	2.5%	-6.7	0.8	-2.9
Fc1cccc(CNCC2CCCO2)c1 (stereo not given)	-4.2	-2.8	-0.4%	1.4	-0.2	2.9
Cc1ccnn1CCC(=O)N1CCCC(CCC(=O)NCc2ccccc2F)C1 (stereo not given)	0.8	2.0	-0.5%	-2.6	-1.5	-5.9
O=Cc1ccc(-n2cncn2)cc1	-9.5	3.6	-0.5%	-1.6	0.4	-8.3
COc1cc(CC2COC(=O)C2(O)Cc2ccc(O)c(OC)c2)ccc1O (stereo not given)	7.3	0.8	-0.6%	5.6	-0.3	16.1
O=C1CN(C(=O)c2ccccc2F)C(c2ccc(F)cc2)c2cc(Br)ccc2N1 (stereo not given)	0.5	8.0	1.1%	0.2	1.6	24.6
O=C(Nc1ccccc1)/C(=C/c1cccnc1)NC(=O)c1ccco1	5.2	4.7	-0.7%	3.2	0.8	11.5
OC(COc1cccc2ccccc12)CN1CCN(c2cccc(Cl)c2)CC1 (stereo not given)	6.2	-20.0	3.3%	-4.2	3.1	4.3
COc1ccc(C)cc1NS(=O)(=O)c1ccc2c(c1)n(C)c(=O)n2C	-3.3	-4.7	2.9%&-0.8%	-4.3	-0.5&0.0	6.1&-12.3
COc1ccc(OCC(=O)NC2CC(=O)N(c3cccc(OC)c3)C2)cc1 (stereo not given)	nt	nt	1.4%	nt	-0.7	-10.4
CC(C)CN(CCCNC(=O)CC1Oc2ccccc2NC1=O)CC(C)C (stereo not given)	3.9	2.1	2.1%[38.3 µM]	2.5	0.2	5.6
CCn1cc(CNCc2cn[nH]c2-c2cc3ccccc3o2)cn1	-6.3	-3.4	2.6%	1.4	-0.3	15.8
NC(=O)CC(NSc1ccccc1[N+](=O)[O-])C(=O)O (stereo not given)	-26.7	1.2	0.1%	-5.5	nt	nt
Cc1ccccc1N(CC(=O)NCCc1ccccc1)C(=O)c1csnn1	-7.1	0.8	-0.2%	-4.5	-0.1	3.4
CCC(Sc1nc2nccnc2c(=O)n1Cc1ccc(F)cc1)C(=O)NC1CCCCC1 (stereo not given)	nt	nt	3.1%	nt	0.5	-13.1
CCc1c(C)nc(N2CCN(c3ccccc3)CC2)[nH]c1=O	-10.1	7.4	0.9%	-5.0	nt	nt
Cc1cc2c(c(=O)n1CCCn1ccnc1)C(c1ccco1)C(C#N)=C(N)O2 (stereo not given)	-10.8	10.4	0.2%	0.0	1.1	-10.4
C/C(=N/NC(=O)C(O)(c1ccccc1)c1ccccc1)c1ccc([N+](=O)[O-])o1	13.7	-8.7	8.2%	4.4	-0.6	31.0
CCOc1ccc(S(=O)(=O)N2CCCC2)cc1	-0.7	4.5	3.4%[38.3 µM]	-3.1	0.9	-11.8
CNC(=O)c1cc2cc(Cl)cc(OC)c2oc1=O	-2.0	0.0	0.0%	-2.6	-0.4	-7.4
Cc1ccc(C)c(S(=O)(=O)N2CCCOC2CNC(=O)C(=O)NCc2cccs2)c1 (stereo not given)	-3.5	-1.6	3.0%	-2.9	0.3	5.6
Cc1cc(C)c(C#N)c(SCc2ccc([N+](=O)[O-])cc2)n1	5.0	0.2	8.0%	8.7	3.3	9.0
CCc1cc(C(=O)OC)c(NC(=O)CSc2nccn2C)s1	-8.5	-13.8	1.2%	1.1	-0.9	-10.9
Cc1cccc2cc(CN(Cc3ccco3)S(=O)(=O)c3ccc4c(c3)OCCO4)c(=O)[nH]c12	-6.4	-10.9	12.4%[38.3 µM]	-0.6	0.8	4.5
CC(C)[C@H](NC(=O)[C@@H]1Cc2ccccc2CN1C(=O)OC(C)(C)C)C(=O)NCc1ccco1	-15.7	3.5	2.2%	-0.7	-0.1	18.4
CCCC(=O)Nc1ccc(-c2ccc(NC(=O)CCC)cc2)cc1	-6.1	-6.1	2.1%	-0.3	0.5	4.5
NS(=O)(=O)c1ccc(NNC(=O)c2ccccc2)cc1	-17.3	2.4	2.2%	-2.4	-0.1	12.8
CCc1cc(C(=O)N2CCN(S(=O)(=O)c3ccc(Cl)cc3)CC2)sc1C	-7.9	8.2	-0.4%	-1.6	2.2	-24.2
CC(C)Cc1nccs1	-2.7	12.0	0.7%	0.8	-0.3	-9.2
Cc1ccccc1OC1CCN(C(=O)c2cc(COc3ccccc3)on2)CC1	-10.4	16.3	1.7%	-3.4	-0.3	-10.2
O=C(Cc1c(F)cccc1Cl)Nc1ccccn1	-15.5	1.2	0.3%	-1.0	-0.2	1.7
COc1cccc(N2CC(NC(=O)c3cccs3)CC2=O)c1 (stereo not given)	nt	nt	0.5%	nt	-0.7	1.1
CCCNC(=O)c1ccc(N2CCC3(CC2)CC(c2cccc(Br)c2)=NO3)c(NC(=O)c2cccc(C)c2)c1	-4.5	1.2	-0.7%	-1.6	-0.7	7.6
CCCS(=O)(=O)NC(=O)C1(C)CCN(C(=O)c2ccccc2C(F)(F)F)C1 (stereo not given)	-5.8	5.4	0.6%	-4.6	-0.8	nt
CC1=NN(c2cc(Cl)c(S(=O)(=O)O)cc2Cl)C(=O)C1	-8.1	-19.0	-0.6%	-2.6	-0.1	-4.2
Fc1ccc(-c2csc(=S)[nH]2)cc1	-3.7	-1.7	3.2%	-1.9	-0.6	-8.9
Cc1ccccc1-c1nc(CS(=O)(=O)CC(=O)NCCCN2CCOCC2)c(C)o1	-15.9	3.9	-0.9%	-6.5	0.2	-10.4
Cc1ccc(S(=O)(=O)ON2C(=O)c3cccc4cccc(c34)C2=O)cc1	-8.8	?	0.5%	-6.3	0.8	2.2
CC1(C(=O)Nc2ccc(Cl)c(Cl)c2)CCN1C(=O)Cc1ccc(-c2ccccc2)cc1 (stereo not given)	-12.6	5.0	4.5%	5.9	1.0	nt
Cc1ccc(NC(=O)N2CCC(O)(c3cccnc3)CC2)cc1	11.1	-3.1	-1.1%	0.3	-0.6	-3.0
CCOC(=O)C1=C(CS(=O)(=O)c2ccccc2)NC(=O)NC1c1ccccc1OCC (stereo not given)	-2.7	2.5	0.7%	-1.6	-0.6	-6.3
O=c1[nH]n2c(=O)c3c([nH]c2c1N=Nc1cccc(C(F)(F)F)c1)CCCC3	-15.7	?	2.9%	-6.8	1.2	24.1
CC(NC(=O)C1CCN(S(=O)(=O)c2ccc3c(c2)NC(=O)CO3)CC1)c1ccccc1 (stereo not given)	3.5	11.8	-0.9%	1.4	-0.3	-22.0
Carrying on.
SMILES	D2 potentiator	Six1-Eya2 inh	PINK1 expr mod	D2 agonist	TRPML1 agonist	TRPML1 blocker
O=C(NC(c1ccc(-c2ccccc2)cc1)c1cnccn1)C1CCN(Cc2cccs2)CC1 (stereo not given)	-15.4	-13.8	2.6%	-2.2	1.0	nt
Clc1ccc(OCc2nc(-c3ccccn3)no2)c(Br)c1	-2.2	-5.6	1.2%	1.6	0.2	0.3
CCOC(=O)c1ccccc1NC(=O)CSc1nc2ccccc2c(=O)n1CCCN1CCOCC1	-4.7	-15.9	6.7%	1.0	-0.3	21.0
COC(=O)CN(c1cccc(F)c1)S(C)(=O)=O	-2.0	-4.3	0.2%	0.7	-0.7	9.6
COc1ccc(-c2nc(CSCC(=O)NCc3ccco3)c(C)o2)cc1	-11.9	-4.4	-0.9%[38.3 µM]	-3.5	-0.5	-8.5
CCCNc1c(NS(=O)(=O)c2ccc(C)c(C)c2)c(=O)oc2ccccc12	-5.0	-9.5	3.1%	8.1	0.5	-14.1
O=C(CN1CCN(Cc2ccccc2)CC1)Nc1cccc(Cl)c1	-14.5	-21.6	0.8%	0.0	-0.6	17.9

Of the compounds above, these contain a CF3 group.
SMILES	D2 potentiator	Six1-Eya2 inh	PINK1 expr mod	D2 agonist	TRPML1 agonist	TRPML1 blocker
COc1ccc(CN(C)C(=O)c2ccc(OCC(=O)Nc3cccc(C(F)(F)F)c3)c(OC)c2)c(OC)c1	14.8	-3.6	0.7%	5.9	2.9	25.7
O=C(CC1C(=O)NCCN1Cc1ccccc1C(F)(F)F)NCCc1ccccn1 (stereo not given)	-5.9	3.7	2.5%	-6.7	0.8	-2.9
CCCS(=O)(=O)NC(=O)C1(C)CCN(C(=O)c2ccccc2C(F)(F)F)C1 (stereo not given)	-5.8	5.4	0.6%	-4.6	-0.8	nt
O=c1[nH]n2c(=O)c3c([nH]c2c1N=Nc1cccc(C(F)(F)F)c1)CCCC3	-15.7	?	2.9%	-6.8	1.2	24.1
